LANA-nucl inh: inhibitors of KSHV LANA binding to nucleosomes | FITC-LANA1-23 / chicken nucleosome fluorescence polarization; stronger effect = lower value | z-score (concentration not given with the values) | 51,000 tested, 0.3% active | AID 720717;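 active = both repeat wells score below -2 in polarization z-score versus plate sample wells, excluding overly bright wells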;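 also: 100 nL library stock added to about 30 µL; numbers are from one replicate; some results filed as inactive read as strong as hits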
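test system = FITC-LANA peptide and chicken nucleosomes | amount = 240 nM purified chicken nucleosomes (480 nM peptide binding sites), final | reagent = 50 nM FITC-LANA1-23 probe | medium = TEN-BT buffer, pH 7.5 | doses = single compound addition by pin transfer, 100 nL per well | timing = 10–45 min, room temperature | detection = fluorescence polarization | repeats = duplicate plates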
BasE inh: BasE siderophore biosynthesis inhibition | inhibition, % (concentration not given with the values) | AID 485350 | purified BasE, fluorescence polarization binding displacement | 84,000 tested, 0.1% active;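 active = both replicates above 25% with normal brightness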;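 also: 0% = negative plate control signal and 100% = positive plate control signal; stock transfer was 100 nL into about 30 µL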
Active calls of the source: *; / = not tested or not shown.

SMILES	LANA-nucl inh	BasE inh
CCn1c(SCc2cccc(C(=O)O)c2)nnc1-c1ccco1	-0.54	1.3
COc1cc(Cl)c(C)cc1NC(=O)CNC(=O)c1ccco1	/	0.6
CN(C)S(=O)(=O)c1ccc(C(=O)OC2CCOC2=O)cc1 (stereo not given)	/	2.4
CCC(CC)NC(=O)c1ccc(S(=O)(=O)N2CCCCC2)cc1	/	1.8
Cc1ccccc1Cn1nnc(-c2ccncc2)n1	0.32	-0.4
CC(=O)N1CCN(CC(O)COc2ccc(C)cc2)CC1 (stereo not given)	/	1.3
COC(=O)C1CC(c2ccc(Cl)cc2)=NO1 (stereo not given)	-0.46	/
CCc1ccc(C(=O)C(C)Sc2nncs2)cc1 (stereo not given)	/	0.4
O=C(Nc1ccc2c(c1)OCO2)c1ccc2c(c1)C(=O)N(C1CCCCC1)C2=O	0.33	0.1
CCS(=O)(=O)N1CCC(C(=O)NCc2ccc(OC)cc2)CC1	-0.48	0.6
CCc1c(/C(C)=N/NC(N)=O)oc2ccc(C)cc12	/	3.3
Cn1c(SCC(=O)N2c3ccccc3OCC2c2ccccc2)nnc1-c1ccco1 (stereo not given)	/	-1.6
Cc1cc(-n2c(C)cc(C(=O)CSc3nc4ccccc4o3)c2C)no1	/	2.5
S=C(NCc1ccccc1)NN1CCCCC1	/	2.5
CC1(C)OC(=O)C(C2C3C4CC5C6C4CC3C6C52)C(=O)O1 (stereo not given)	/	-2.3
COC(=O)c1cc(COC(=O)/C=C/c2nc3ccccc3s2)oc1C	/	-4.4
CC(C)NS(=O)(=O)c1ccc(NC(=O)C2CC2C)cc1 (stereo not given)	-1.3	-0.3
Cc1nc2ccccc2nc1CSCC(=O)c1cc(C)n(C)c1C	/	0.2
CCC1CCCCN1C(=O)COC(=O)c1c2c(nc3ccccc13)CCC2 (stereo not given)	/	0.7
CCOC(=O)c1[nH]c2ccccc2c1N	0.35	/
COC(=O)c1cc(C(O)(C(=O)OC)C(F)(F)F)c(N)s1 (stereo not given)	/	-2.2
O=C1NCCCCC1NS(=O)(=O)c1ccc2c(c1)OCCCO2 (stereo not given)	0.56	0.5
CC(C)Cn1c(N)c(C(=O)c2ccc(S(=O)(=O)N3CCCCC3)cc2)c(=O)[nH]c1=O	/	-3.1
CCOC(=O)c1ccc(NC(=O)CC2SC(=O)N(CN3CCOCC3)C2=O)cc1 (stereo not given)	0.076	-2.1
Nc1c(C(=O)C23CC4CC(CC(C4)C2)C3)oc2ccccc12	-0.3	2.7
COCC[N+]1(C)CCCCC1	-0.88	0.4
COc1cc2c(cc1N)CCCC2	0.31	1.1
c1coc(-c2nc3nc4ccccc4nc3n2CC2CCCO2)c1 (stereo not given)	-0.85	1.6
CC(C)CC(=O)Nc1c[nH]c(=O)[nH]c1=O	-0.78	4.7
CCOCCn1ccc2c(OCc3cccnc3)cccc2c1=O	-0.091	2.8
NC(=S)NCC1CC(c2ccc(Cl)cc2Cl)=NO1 (stereo not given)	1.7	-1.5
Cc1ccc(-n2c(=O)c3ccccc3n3c(SCC4CCCCO4)nnc23)c(C)c1 (stereo not given)	/	0.9
Cc1csc(=O)n1CCC(=O)OC(C)C(=O)c1ccc(Br)cc1 (stereo not given)	/	0.7
C/C(=N\N=C(N)N)c1ccco1	/	-1.7
O=C(Oc1ccc(-c2nnco2)cc1)c1cn2ccccc2n1	/	-0.6
Cc1cc(C)nc(-n2nc(C)c3c2N(C)C(=O)CC3c2ccccc2Cl)n1 (stereo not given)	0.097	-2.0
CCCC(=O)O/N=C(\c1ccccc1)c1ccncc1	-0.48	1.1
C/C=C(\C)c1nnc(NC(=O)Cc2ccccc2)s1	-0.39	-1.5
Cc1[nH]nc(-c2ccc(S(=O)(=O)N(C)Cc3ccco3)s2)c1C	0.64	-4.2
Fc1ccc(-c2oncc2-c2nnnn2-c2ccc(Cl)cc2)c(F)c1	0.4	-0.3
Cc1ccc(S(=O)(=O)N2CCN(C(=O)CCN3C(=O)c4ccccc4C3=O)CC2)cc1	/	-1.2
Cc1c2c(n3c(nc4ccccc43)c1C#N)N(c1ccccc1)CC2	0.56	-28
Cc1ccc(-c2ccc(=O)n(Cc3cc(=O)n4ccccc4n3)n2)cc1	0.33	-6.9
CC(OC(=O)C1=NNC(=O)CC1)C(=O)Nc1ccccc1-c1ccccc1 (stereo not given)	/	0.6
COc1ccc(N(Cc2cscn2)S(=O)(=O)c2cc(C)ccc2C)cc1	/	-1.2

Part of the list above, with each value named:
compound: CCn1c(SCc2cccc(C(=O)O)c2)nnc1-c1ccco1
- LANA-nucl inh: -0.54
- BasE inh: 1.3
compound: COc1cc(Cl)c(C)cc1NC(=O)CNC(=O)c1ccco1
- LANA-nucl inh: /
- BasE inh: 0.6
compound: CN(C)S(=O)(=O)c1ccc(C(=O)OC2CCOC2=O)cc1 (stereo not given)
- LANA-nucl inh: /
- BasE inh: 2.4
compound: CCC(CC)NC(=O)c1ccc(S(=O)(=O)N2CCCCC2)cc1
- LANA-nucl inh: /
- BasE inh: 1.8

The results go on.
SMILES	LANA-nucl inh	BasE inh
CN(CCO)c1ccc(-c2nc(-c3ccccc3)c(-c3ccccc3)[nH]2)cc1	/	0.1
c1ccc2nc3c(nc2c1)c1ccccc1n3CCN1CCOCC1	/	-0.1
CCOc1cc(N2CCOCC2)c(OCC)cc1NC(=O)CN1c2ccccc2CC1C (stereo not given)	/	2.9
CCN1C(=O)S/C(=C/c2cc(C)n(-c3ccc(S(N)(=O)=O)cc3)c2C)C1=O	0.37	-4.2
Cc1cc(C)n(C(C)n2nc(C)cc2C)n1	0.33	0.2
Cn1c(SCC(=O)c2ccc(F)cc2)nnc1C(O)c1ccccc1 (stereo not given)	-1.1	2.9
COCCn1nnnc1CN(Cc1ccco1)Cc1cc2cc(OC)ccc2[nH]c1=O	-0.55	-0.3
CCCCC1CCC(C(=O)Nc2nonc2-c2ccc(OCC)cc2)CC1 (stereo not given)	-0.49	1.4
Cc1ccccc1-n1c(SCc2nnc(-c3cc4c(s3)CCCC4)o2)nnc1N1CCOCC1	/	0.2
CC(C)CC(=O)Nc1ccc2ccccc2c1	-0.53	2.2
Nc1nc(COC(=O)c2ccc3ccccc3c2O)nc(Nc2ccccc2)n1	/	-1.6
COc1ccc(-c2onc(C)c2C)cc1S(=O)(=O)NC1CCN(Cc2ccccc2)CC1	/	-2.8
Cn1cnc2c(=O)oc3ccc(S(=O)(=O)N4CCc5ccccc5C4)cc3c21	-0.15	-18
N#C/C(=C\c1ccc(-c2ccc(Br)cc2)o1)C(=O)OC1CCCCC1	0.083	-2.2
Cc1ccc(N2CN=C(c3ccccc3)NC2=S)cc1	0.049	-1.3
CCOc1cc(/C=C2/SC(=O)NC2=O)ccc1OCC(=O)O	/	-2.1
CC1CCC(COC(=O)CN2CCCCC2)C(C)C1 (stereo not given)	-0.65	3.1
Cc1cc(C(=O)c2cccs2)c(N)s1	1.9	-2.2
O=S1(=O)N=C(Nc2nncs2)c2ccccc21	-0.84	2.6
CC(C)N1CNc2nc3ccccc3n2C1	-0.052	3.2
NCCNC(=O)Cc1ccc(O)cc1	/	1.9
CCn1c2ccccc2c2cc(CNCC(C)O)ccc21 (stereo not given)	0.69	-3.9
Cc1ccc(S(=O)(=O)N2CCCCC2)cc1-n1c(C)cc(C2N=C(N)Nc3nc4ccccc4n32)c1C (stereo not given)	/	-2.5
FC(F)(F)COc1ccc(-c2n[nH]c(=S)o2)cn1	-1.6	0.0
O=c1cc(O)c(-c2cccc(C(F)(F)F)c2)c(Cl)[nH]1	0.013	/
CCOC(=O)c1c(C)nn(-c2ccnc3cc(Cl)ccc23)c1C	0.48	/
CNS(=O)(=O)c1cc2c3c(cccc3c1)C(=O)NC2=O	-0.72	-6.7
CCOC(=O)C1CCN(C(=O)Cc2ccc(C)cc2)CC1	-0.012	3.9
OC(Cn1cncn1)c1ccc(Br)cc1Br (stereo not given)	/	-0.5
COc1ccc2oc(=O)c(-c3cnc(C)s3)cc2c1	/	0.4
CCn1c(SCC(=O)N(C2CCCCC2)C2CCCCC2)nnc1C(C)C	-1.4	0.3
CCc1ccccc1NC(=O)Nc1cc2sccc2n1CC	-0.58	1.9
COc1ccc(C(=O)/C(C)=N/O)cc1	/	0.1
BrCc1ccc(-c2noc(-c3ccncc3)n2)cc1	-1.9	/
O=C1COc2cc(S(=O)(=O)CCC(=O)N3CCCCC3)c(Cl)cc2N1	-1.3	1.0
CCCCN1Cc2c(n(CC(=O)c3ccc(OC)cc3)c3cc(-c4ccccc4)nn3c2=O)C1=O	/	1.4
CSc1sc(C#N)c2c1C(=O)CC(c1ccc(C)cc1)C2 (stereo not given)	-0.62	0.8
CC(C)C(C)(C#N)NC(=O)Cn1cc(Br)ccc1=O (stereo not given)	/	5.9
CC(CC(=O)c1cccs1)CC(=O)c1cccs1	0.31	-0.5
COc1cccc2c1O/C(=N\O)C(C(=O)Nc1cccc(Br)c1)C2 (stereo not given)	-0.19	0.9
Clc1ccc2nc(N3CCCC3)sc2c1	-0.15	-0.6
CCCCNC(=O)c1ccc(NS(=O)(=O)CC)cc1	-0.1	1.1
O=C1CCc2c(ccc3ccccc23)O1	0.026	1.1
CSc1ccccc1NC(=O)CO/N=C(\C)c1cc2ccccc2o1	/	-0.7
CNC(=O)c1nc(-c2ccccc2)oc1C	0.073	2.3

3 entries from above, sorted by molecular weight, descending.
SMILES	LANA-nucl inh	BasE inh
O=C1COc2cc(S(=O)(=O)CCC(=O)N3CCCCC3)c(Cl)cc2N1	-1.3	1.0
CSc1ccccc1NC(=O)CO/N=C(\C)c1cc2ccccc2o1	/	-0.7
Clc1ccc2nc(N3CCCC3)sc2c1	-0.15	-0.6

Further compounds follow.
SMILES	LANA-nucl inh	BasE inh
CCCSc1nnc2c(n1)OC(C)=Nc1ccc(Br)cc1-2	0.3	4.1
C/C(=N\N=C(c1ccccc1)c1ccccc1)c1ccco1	/	0.8
Cc1ccc(S(=O)(=O)N2Cc3ccccc3C2)cc1	/	1.9
CCC1COC(c2cccn2Cc2ccc(F)cc2Cl)=N1 (stereo not given)	-0.58	1.9
CCOC(=O)NC(=O)Cn1nnc(-c2ccccc2C)n1	/	-0.2
COc1ccc(-c2nnc(SCC(=O)Nc3ccc4[nH]c(=O)[nH]c4c3)n2C2CCCCC2C)cc1 (stereo not given)	/	-0.3
C(=N\n1cnnc1)/c1ccc(-c2ccccc2)cc1	/	-4.8
CN1CCN(S(=O)(=O)c2ccc(NN)nc2)CC1	/	-1.7
O=C(COC(=O)c1ccc(S(=O)(=O)N2CCCC2)cc1)Nc1ncc(Cl)cc1Cl	/	-0.1
N#Cc1ccc(COC(=O)c2ccccc2-c2ncc(-c3ccccc3)o2)cc1	/	1.3
CC12CCCCC1CCC2NCCCCCCN1C(=O)C=CC1=O (stereo not given) (tested in a mixture with another compound)	0.22	-2.2
COc1ccc2nc3oc(C(=O)Nc4cccc(SC)c4)cc3cc2c1	-0.57	1.9
CC(OC(=O)/C=C/c1ccc(Br)o1)C(=O)Nc1ccc2c(c1)OCO2 (stereo not given)	/	-1.3
O=C1CSC(=Nc2ccccc2)N1Cc1ccccc1	/	0.5
O=C(Nc1ccccc1F)C1CCCC1	0.55	0.9

5 entries from above, arranged by the number in LANA-nucl inh, highest first.
| smiles | LANA-nucl inh |
| --- | --- |
| Cc1cc(C)n(C(C)n2nc(C)cc2C)n1 | 0.33 |
| Nc1c(C(=O)C23CC4CC(CC(C4)C2)C3)oc2ccccc12 | -0.3 |
| CCCC(=O)O/N=C(\c1ccccc1)c1ccncc1 | -0.48 |
| COCCn1nnnc1CN(Cc1ccco1)Cc1cc2cc(OC)ccc2[nH]c1=O | -0.55 |
| CNS(=O)(=O)c1cc2c3c(cccc3c1)C(=O)NC2=O | -0.72 |

(next part)
SMILES	LANA-nucl inh	BasE inh
O=C(CSc1ccc2c(c1)OCCO2)c1ccc[nH]1	/	-0.6
Nc1ncc(C(O)(C(F)(F)F)C(F)(F)F)s1	/	1.5
CCCCOC(=O)Nc1ccccc1C(N)=O	-1.2	-3.0
O=c1ccc(-c2ccccc2)nn1Cc1ccncc1	-1.3	77*
CC(=O)Nc1ccc(Nc2cc(C(F)(F)F)nc3ncnn23)cc1	-0.26	0.6
Cc1cc(C(=O)Nc2cc(C(F)(F)F)ccc2N2CCCC2)n(C)n1	0.038	/
CCOC(=O)c1ccc(NC(=O)c2ccc(CN3CC(=O)N4CCCCC4C3=O)cc2)cc1 (stereo not given)	0.62	-3.1
O=C1CC(c2ccco2)CC2=C1C(c1ccccc1)n1c(nc3ccccc31)N2 (stereo not given)	0.012	2.2
COC(=O)/C=C1/N/C(=N\c2nc(C)cc(C)n2)N(c2ccc(C)c(C)c2)C1=O	2.5	0.7
Cc1ccc2oc(=O)c3cnn(CC(=O)N4CCc5ccccc5C4)c3c2c1	-0.41	1.9
CN1CCN(CCNC(=O)c2ccc(-n3ccc4ccccc43)s2)CC1	0.3	-7.1
O=C(O)C1C2C=CC3(CN(Cc4cccc(Cl)c4Cl)C(=O)C13)O2 (stereo not given)	0.18	4.3
Cc1ccc(C(=O)N2CCN(c3ncnc4c3cnn4-c3ccccc3)CC2)cc1	-0.5	-1.4
N#CC(C(=O)NCCc1ccccc1)c1nc2ccccc2nc1N1CCOCC1 (stereo not given)	0.69	-7.4

Screening results (PubChem)

These rows are one share of the data (hit frequency here may not be typical).
